# Assay outcomes (PubChem)
# A1 apoptosis 2: compounds inhibiting A1, read as caspase activation; MEF A1-2A-BIM cells, caspase-Glo luminescence, 3 h; percent of clofoctol response, DMSO zero; 24,000 tested, under 10 active; AID 2465; caspase activation, % (test concentration not listed); in the data active means caspase activation above about 5.9%;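 further: wells of about 30 µL received 50 nL stock; the first replicate is given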
#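 Evaluation: Caspase-3/7 activity from luminescence increase | Assay system: A1-2A-BIM mouse embryonic fibroblasts | Quantity: 2500 MEF cells/well | Medium: RPMI-1640 plus 10% FBS | Detection: Caspase-Glo 3/7 luminescence, 1 h at room temperature | Dosing: 50 nL compound per well, pinned | Timing: Cells settled overnight, compound exposure 3 h at 37 °C, 5% CO2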
# Starred values were filed as active, the others as inactive.
structure | A1 apoptosis 2
CNC[C@@H]1OCCCC[C@@H](C)Oc2ccc(NS(=O)(=O)c3cccs3)cc2C(=O)N([C@H](C)CO)C[C@@H]1C | -0.2
C[C@H](CO)N1C[C@H](C)[C@H](CN(C)CC2CCCCC2)Oc2c(NC(=O)Nc3ccc(C(F)(F)F)cc3)cccc2C1=O | 0.5
COc1ccc(CN(C)C[C@H]2Oc3c(NS(C)(=O)=O)cccc3C(=O)N([C@@H](C)CO)C[C@@H]2C)cc1 | -1.1
Cc1noc(C)c1NC(=O)Nc1ccc2c(c1)CC(=O)N([C@@H](C)CO)C[C@H](C)[C@H](CN(C)CC1CC1)O2 | 0.7
O=C(NO)c1cccc(C(=O)N/N=C/c2ccc(Br)o2)c1 | 0.6
Cc1noc(C)c1NC(=O)Nc1cccc2c1O[C@H](CN(C)C(=O)Nc1c(C)noc1C)[C@@H](C)CN([C@H](C)CO)C2=O | -0.5
C[C@@H]1CN([C@H](C)CO)C(=O)CCCn2cc(nn2)CO[C@H]1CN(C)C(=O)Nc1ccc(-c2cccs2)cc1 | 2.6
C[C@@H]1CN([C@@H](C)CO)C(=O)c2cc(NC(=O)Nc3ccccc3)ccc2O[C@@H](C)CCCCO[C@@H]1CN(C)S(=O)(=O)c1cccs1 | -1.1

# Laid out differently: four of the compounds above
Compound: CNC[C@@H]1OCCCC[C@@H](C)Oc2ccc(NS(=O)(=O)c3cccs3)cc2C(=O)N([C@H](C)CO)C[C@@H]1C
  A1 apoptosis 2 = -0.2
Compound: C[C@H](CO)N1C[C@H](C)[C@H](CN(C)CC2CCCCC2)Oc2c(NC(=O)Nc3ccc(C(F)(F)F)cc3)cccc2C1=O
  A1 apoptosis 2 = 0.5
Compound: COc1ccc(CN(C)C[C@H]2Oc3c(NS(C)(=O)=O)cccc3C(=O)N([C@@H](C)CO)C[C@@H]2C)cc1
  A1 apoptosis 2 = -1.1
Compound: Cc1noc(C)c1NC(=O)Nc1ccc2c(c1)CC(=O)N([C@@H](C)CO)C[C@H](C)[C@H](CN(C)CC1CC1)O2
  A1 apoptosis 2 = 0.7

# New compounds follow:
structure | A1 apoptosis 2
C[C@H](CO)N1C[C@H](C)[C@@H](CN(C)Cc2ccncc2)Oc2ccc(NC(=O)Nc3ccc(C(F)(F)F)cc3)cc2CC1=O | -0.1
Cc1noc(C)c1NC(=O)Nc1ccc2c(c1)C(=O)N([C@@H](C)CO)C[C@H](C)[C@@H](CN(C)C(=O)Nc1c(C)noc1C)OCCCC[C@H](C)O2 | 1.4
CC(C)NC(=O)Nc1ccc2c(c1)C(=O)N([C@H](C)CO)C[C@H](C)[C@H](CN(C)CC1CC1)O2 | 0.2
C[C@H](CO)N1C[C@H](C)[C@@H](CN(C)CC2CC2)Oc2ccc(NC(=O)Cn3cnnn3)cc2CC1=O | -1.1
Cc1noc(C)c1NC(=O)Nc1cccc2c1O[C@@H](CN(C)Cc1ccc(C(=O)O)cc1)[C@H](C)CN([C@H](C)CO)C2=O | 0.8
C[C@H]1CN([C@@H](C)CO)C(=O)CCCn2cc(nn2)CO[C@H]1CN(C)S(=O)(=O)c1cn(C)cn1 | -2.1
Cc1ccc(S(=O)(=O)N(C)C[C@@H]2Oc3ccc(NC(=O)Nc4c(C)noc4C)cc3CC(=O)N([C@H](C)CO)C[C@H]2C)cc1 | -0.1
O=[N+]([O-])c1ccc(C(O)CC(O)CSc2nc(-c3ccccc3)c(-c3ccccc3)o2)cc1 (configuration not stated) | -0.4

# Other results
structure | A1 apoptosis 2
C[C@@H]1CCCCO[C@H](CN(C)C(=O)Nc2ccccc2)[C@@H](C)CN([C@@H](C)CO)C(=O)c2cc(N(C)C)ccc2O1 | -1.9
COc1ccc(NC(=O)N(C)C[C@H]2Oc3ccc(NS(=O)(=O)c4ccc(F)cc4)cc3CC(=O)N([C@H](C)CO)C[C@H]2C)cc1 | -0.8
COc1ccc(S(=O)(=O)Nc2cccc3c2O[C@H](CN(C)Cc2ccc(-c4ccccc4)cc2)[C@@H](C)CN([C@@H](C)CO)C3=O)cc1 | -0.6
C[C@@H]1CN([C@H](C)CO)C(=O)Cc2cc(NS(=O)(=O)c3ccc(Cl)cc3)ccc2O[C@H]1CN(C)CC1CC1 | -0.4
C[C@@H]1CCCCO[C@H](CN(C)C(=O)CCC(F)(F)F)[C@@H](C)CN([C@H](C)CO)C(=O)c2cc(NC(=O)CCCCCC(=O)Nc3ccccc3N)ccc2O1 | 0.3
C[C@H]1CN([C@@H](C)CO)C(=O)Cc2cc(NC(=O)C3CCCCC3)ccc2O[C@H]1CN(C)S(=O)(=O)c1ccccc1 | -0.4
C[C@@H]1CN([C@@H](C)CO)C(=O)c2cccc(NS(=O)(=O)c3cccs3)c2O[C@@H]1CN(C)Cc1ccc(C(=O)Nc2ccccc2N)cc1 | -0.5
COc1ccc(NC(=O)N(C)C[C@@H]2Oc3ccc(NC(=O)NC(C)C)cc3CC(=O)N([C@@H](C)CO)C[C@@H]2C)cc1 | 0.1

# Other compounds
structure | A1 apoptosis 2
Cc1noc(C)c1NC(=O)N(C)C[C@@H]1Oc2ccc(NS(C)(=O)=O)cc2CC(=O)N([C@H](C)CO)C[C@@H]1C | 0.2
C[C@@H]1CN([C@@H](C)CO)C(=O)c2cc(NS(C)(=O)=O)ccc2O[C@@H](C)CCCCO[C@H]1CN(C)Cc1ccccc1 | -0.9
COc1ccc(CN(C)C[C@@H]2Oc3ccc(NC(=O)Cc4ccccc4)cc3CC(=O)N([C@H](C)CO)C[C@H]2C)cc1 | -1.0
C[C@H](CO)N1C[C@H](C)[C@H](CN(C)S(=O)(=O)c2cn(C)cn2)OCCCC[C@H](C)Oc2ccc(NC(=O)c3ccccc3)cc2C1=O | 1.4
C[C@H](CO)N1C[C@H](C)[C@@H](CN(C)S(=O)(=O)c2ccc(F)cc2)OCCCC[C@H](C)Oc2ccc(NS(=O)(=O)c3cn(C)cn3)cc2C1=O | 1.2
C[C@@H]1CN([C@H](C)CO)C(=O)Cc2cc(NC(=O)Cn3cnnn3)ccc2O[C@@H]1CN(C)C | -0.6
C[C@@H]1CCCCO[C@H](CN(C)C(=O)c2ccccc2)[C@@H](C)CN([C@@H](C)CO)C(=O)c2cc(NC(=O)Cc3ccccc3)ccc2O1 | 0.1
CNC[C@@H]1Oc2c(NS(=O)(=O)c3ccc(OC)cc3)cccc2C(=O)N([C@H](C)CO)C[C@H]1C | 0.9

# Other structures follow:
structure | A1 apoptosis 2
C[C@@H]1CCCCO[C@@H](CN(C)C(=O)NC2CCCCC2)[C@@H](C)CN([C@@H](C)CO)C(=O)c2cc(NS(=O)(=O)c3ccc(Cl)cc3)ccc2O1 | 1.0
O=C(C1=C[C@@H](c2csc3ccccc23)C[C@@H](OCc2ccc(CO)cc2)O1)N1CCOCC1 | -0.4
C[C@@H]1CCCCO[C@@H](CN(C)S(C)(=O)=O)[C@H](C)CN([C@@H](C)CO)C(=O)c2cc(NC(=O)Nc3ccc(C(F)(F)F)cc3)ccc2O1 | 0.8
C[C@@H]1CCCCO[C@@H](CN(C)C(=O)CCCN(C)C)[C@@H](C)CN([C@H](C)CO)C(=O)c2cc(NC(=O)CCCN(C)C)ccc2O1 | -0.4
COc1ccc(S(=O)(=O)Nc2ccc3c(c2)C(=O)N([C@@H](C)CO)C[C@H](C)[C@@H](CN(C)S(=O)(=O)c2cccs2)O3)cc1 | -1.4
C[C@H]1CN([C@@H](C)CO)C(=O)c2cc(NC(=O)Nc3ccc4c(c3)OCO4)ccc2O[C@H]1CN(C)C(=O)Nc1ccc(F)cc1 | 0.6
C[C@H](CO)N1C[C@H](C)[C@@H](CN(C)Cc2cccc(C(=O)O)c2)OCc2cn(nn2)CCCC1=O | 0.1
Cc1noc(C)c1S(=O)(=O)Nc1ccc2c(c1)CC(=O)N([C@@H](C)CO)C[C@H](C)[C@@H](CN(C)S(=O)(=O)c1ccc(Cl)cc1)O2 | 1.1

# Compounds above with a Cl atom, in the order listed:
structure | A1 apoptosis 2
C[C@@H]1CN([C@H](C)CO)C(=O)Cc2cc(NS(=O)(=O)c3ccc(Cl)cc3)ccc2O[C@H]1CN(C)CC1CC1 | -0.4
C[C@@H]1CCCCO[C@@H](CN(C)C(=O)NC2CCCCC2)[C@@H](C)CN([C@@H](C)CO)C(=O)c2cc(NS(=O)(=O)c3ccc(Cl)cc3)ccc2O1 | 1.0
Cc1noc(C)c1S(=O)(=O)Nc1ccc2c(c1)CC(=O)N([C@@H](C)CO)C[C@H](C)[C@@H](CN(C)S(=O)(=O)c1ccc(Cl)cc1)O2 | 1.1

# The list goes on:
Compound | A1 apoptosis 2
C[C@H](CO)N1C[C@H](C)[C@H](CN(C)C(=O)Cc2ccccc2)OCCCC[C@H](C)Oc2ccc(NC(=O)c3ccncc3)cc2C1=O | 0.5
C[C@@H]1CN([C@@H](C)CO)C(=O)Cc2cc(NC(=O)Nc3ccc(C(F)(F)F)cc3)ccc2O[C@H]1CN(C)Cc1ccc(-c2ccccc2)cc1 | -0.3
Cc1noc(C)c1S(=O)(=O)Nc1ccc2c(c1)CC(=O)N([C@H](C)CO)C[C@H](C)[C@H](CN(C)C(=O)NC(C)C)O2 | -0.2
C[C@H](CO)N1C[C@H](C)[C@@H](CN(C)S(=O)(=O)c2cn(C)cn2)Oc2c(NS(C)(=O)=O)cccc2C1=O | -0.2
Cc1noc(C)c1S(=O)(=O)Nc1ccc2c(c1)C(=O)N([C@@H](C)CO)C[C@@H](C)[C@H](CN(C)CC1CC1)O2 | -1.2
Cc1ccc(S(=O)(=O)Nc2ccc3c(c2)C(=O)N([C@H](C)CO)C[C@@H](C)[C@@H](CN(C)C(=O)Nc2ccccc2)OCCCC[C@@H](C)O3)cc1 | -2.1
Cc1ccc(S(=O)(=O)N(C)C[C@@H]2Oc3ccc(NC(=O)C4CC4)cc3CC(=O)N([C@@H](C)CO)C[C@@H]2C)cc1 | 0.2
C[C@@H]1CN([C@@H](C)CO)C(=O)c2cc(NC(=O)c3ccncc3)ccc2O[C@H]1CN(C)Cc1ccncc1 | -0.6
C[C@H](CO)N1C[C@H](C)[C@H](CN(C)C(=O)Nc2ccccc2)Oc2ccc(NC(=O)CCC(F)(F)F)cc2CC1=O | -0.4
C[C@H]1CCCCO[C@@H](CN(C)S(=O)(=O)c2ccc(Cl)cc2)[C@@H](C)CN([C@@H](C)CO)C(=O)c2cc(NS(=O)(=O)c3ccc(Cl)cc3)ccc2O1 | -0.7
CNC[C@@H]1OCCCC[C@@H](C)Oc2ccc(NC(=O)Nc3cccc4ccccc34)cc2C(=O)N([C@H](C)CO)C[C@H]1C | 0.1
COc1ccc(NC(=O)Nc2ccc3c(c2)C(=O)N([C@H](C)CO)C[C@@H](C)[C@H](CN(C)Cc2ccc(Oc4ccccc4)cc2)O3)cc1 | -0.6
Cc1ccc(S(=O)(=O)Nc2cccc3c2O[C@H](CN(C)Cc2ccc(Cl)c(Cl)c2)[C@@H](C)CN([C@@H](C)CO)C3=O)cc1 | 1.2
CC(C)NC(=O)Nc1ccc2c(c1)C(=O)N([C@H](C)CO)C[C@H](C)[C@@H](CN(C)C(=O)CCC(F)(F)F)OCCCC[C@H](C)O2 | -0.4
C[C@H]1CN([C@@H](C)CO)C(=O)c2cc(N(C)C)ccc2O[C@@H]1CN(C)S(=O)(=O)c1ccccc1 | -0.5

# (list continues)
Compound | A1 apoptosis 2
C[C@@H]1CN([C@@H](C)CO)C(=O)c2cc(NS(C)(=O)=O)ccc2O[C@@H]1CN(C)C(=O)NC1CCCCC1 | 1.3
Cc1noc(C)c1NC(=O)N(C)C[C@H]1Oc2c(NS(=O)(=O)c3cn(C)cn3)cccc2C(=O)N([C@@H](C)CO)C[C@H]1C | 0.2
COc1ccc(S(=O)(=O)Nc2ccc3c(c2)C(=O)N([C@H](C)CO)C[C@H](C)[C@H](CN(C)Cc2ccccc2)OCCCC[C@H](C)O3)cc1 | 0.1
C[C@@H]1CN([C@H](C)CO)C(=O)Cc2cc(NC(=O)CCC(F)(F)F)ccc2O[C@@H]1CN(C)S(C)(=O)=O | 0.3
Cc1ccc(S(=O)(=O)N(C)C[C@H]2Oc3c(NC(=O)Nc4ccc(C(F)(F)F)cc4)cccc3C(=O)N([C@@H](C)CO)C[C@H]2C)cc1 | -1.0
COc1ccc(S(=O)(=O)N(C)C[C@H]2Oc3c(NC(=O)c4nc5ccccc5s4)cccc3C(=O)N([C@H](C)CO)C[C@H]2C)cc1 | -0.7
C[C@@H]1CN([C@H](C)CO)C(=O)c2cc(NC(=O)C3CCCCC3)ccc2O[C@@H](C)CCCCO[C@H]1CN(C)S(=O)(=O)c1cccs1 | 1.5
Cc1noc(C)c1NC(=O)N(C)C[C@H]1Oc2ccc(NC(=O)CCCCCC(=O)Nc3ccccc3N)cc2C(=O)N([C@@H](C)CO)C[C@H]1C | -0.6
C[C@@H]1CCCCO[C@@H](CN(C)Cc2ccncc2)[C@H](C)CN([C@H](C)CO)C(=O)c2cc(NC(=O)Nc3cccc4ccccc34)ccc2O1 | 1.6
Cc1noc(C)c1NC(=O)N(C)C[C@@H]1Oc2c(NC(=O)c3ccncc3)cccc2C(=O)N([C@H](C)CO)C[C@@H]1C | -0.6
C[C@@H]1CN([C@@H](C)CO)C(=O)c2cccc(NC(=O)C3CCOCC3)c2O[C@H]1CN(C)S(=O)(=O)c1cccs1 | 0.0
C[C@H](CO)N1C[C@H](C)[C@@H](CN(C)Cc2ccccc2)OCc2cnnn2CCCC1=O | 0.9
CC(C)NC(=O)Nc1ccc2c(c1)C(=O)N([C@@H](C)CO)C[C@@H](C)[C@@H](CN(C)Cc1ccc(Cl)c(Cl)c1)O2 | -0.4
Cc1noc(C)c1S(=O)(=O)Nc1cccc2c1O[C@H](CN(C)Cc1ccncc1)[C@H](C)CN([C@@H](C)CO)C2=O | -1.0
O=C(CCCCCCC(=O)Nc1ccccc1O)N/N=C/c1nccs1 | -0.5
C[C@H]1CN([C@@H](C)CO)C(=O)c2cccc(NC(=O)NC3CCCCC3)c2O[C@H]1CN(C)S(=O)(=O)c1ccccc1 | 2.3

# An excerpt; count on the stated rates, not on these rows.
